# ALR H2O2 inh: human ALR oxidase inhibition via reduced H2O2 | P55789 | AID 485317 | purified ALR, DTT oxidation, H2O2 HRP-luminol luminescence | inhibition, % (no concentration beside the values) | 3.8% of 290,000 active;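 active = mean and each replicate at 75% or more; inconclusive = only one of the two met; inactive = neither met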;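 also: stock transfer was 7.5 nL into about 7.5 µL; 0% = neutral wells and 100% = wells with inactivated enzyme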
# Target sequence (P55789 whole entry, looked up): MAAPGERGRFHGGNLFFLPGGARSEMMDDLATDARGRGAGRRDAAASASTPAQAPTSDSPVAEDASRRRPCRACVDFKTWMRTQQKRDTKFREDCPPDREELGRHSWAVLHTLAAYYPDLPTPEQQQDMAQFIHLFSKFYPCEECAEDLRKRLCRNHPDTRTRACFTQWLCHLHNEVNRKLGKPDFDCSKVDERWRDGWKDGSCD
# RanGTP-Impb inh: disruptors of Ran-importin-beta complex formation – biochemical, FRET, CFP-Ran, YFP-importin-beta, homogeneous, primary screen. cell-free CFP-Ran/YFP-importin-beta FRET ratio. inhibition, % (concentration not given with the values). 1.1% of 300,000 active. AID 2216;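 active = most replicates above 15%; inconclusive = exactly half above 15%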;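 also: 0% = DMSO wells and 100% = Ran loaded with GDP instead of GTP; wells of about 40 µL received 100 nL stock; the first replicate is given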
# HNF4A DNA FP: change in binding of human HNF4 alpha to DNA; P41235; HNF4a-FITC DNA binding, fluorescence polarization, 1 h; activity change, % at 10 µM; 0.3% of 360,000 active; AID 1224865; in the data active = activity change above about 30%, passing the limit was not always enough;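 also: controls were the assay level and a saturating level of protein; the project sought stronger binding though the title names inhibitors; some compounds called inactive have numbers as strong as hits; positive values seem to mean higher polarization but the record does not say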
# Target sequence (P41235 whole entry, looked up): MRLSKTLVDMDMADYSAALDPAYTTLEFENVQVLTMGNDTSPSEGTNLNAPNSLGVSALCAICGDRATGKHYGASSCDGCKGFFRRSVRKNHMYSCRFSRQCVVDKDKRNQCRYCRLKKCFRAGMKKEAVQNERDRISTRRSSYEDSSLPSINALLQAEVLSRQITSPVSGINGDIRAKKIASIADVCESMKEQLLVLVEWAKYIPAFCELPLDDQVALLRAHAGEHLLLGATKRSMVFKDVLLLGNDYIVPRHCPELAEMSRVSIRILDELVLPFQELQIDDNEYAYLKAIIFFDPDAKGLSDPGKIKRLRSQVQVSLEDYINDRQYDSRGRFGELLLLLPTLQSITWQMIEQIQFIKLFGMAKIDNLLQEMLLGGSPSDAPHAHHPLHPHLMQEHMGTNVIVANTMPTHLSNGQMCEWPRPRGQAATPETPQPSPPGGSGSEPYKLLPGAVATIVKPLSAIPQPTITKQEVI
# Vif A3G: HIV-1 Vif–A3G interaction blockers – biochemical, TR-FRET, GST-Vif 1-94, biotin-A3G peptide, dose response retest, primary screen (AID 1117319); 0.57% of 260,000 active; TR-FRET GST-Vif / biotin-A3G peptide binding; higher % means a stronger effect; test concentration not given here; strong numbers were not always called active; one-dose inhibition, %; IC50 in µM for titrated hits;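 active = above the screen mean plus three standard deviations and confirmed in dose response; inconclusive = results disagree or hit not tested in dose response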;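 also: Vif residues 1-94 fused to GST binding biotinylated APOBEC3G peptide 110-148; 0% = full assay without inhibitor and 100% = GST in place of GST-Vif; retest series ran down from 100 µM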
# Calb FLC: affects C. albicans growth with fluconazole. AID 1979. C. albicans CaCi-2 (fluconazole-resistant clinical isolate) + fluconazole, Alamar Blue growth, 48 h. growth inhibition, % (test concentration not listed). 0.57% of 300,000 active;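 active = most replicates above 75%; inconclusive = exactly half above 75%; inactive = most below 75%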;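 also: all wells also contain fluconazole at 8 µg/ml as a sub-toxic cotreatment; 0% = median of DMSO wells and 100% = median of geldanamycin control wells; wells of about 8 µL received 7.5 nL stock; the first replicate is given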
# B2AR ag: activates human beta-2 adrenergic receptor causing internalization; P07550; Am2.2-beta2AR cells, FAP receptor internalization, flow cytometry; reference of the scale not given here; response, % (no concentration beside the values); 0.43% of 340,000 active;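 active = response above a set limit, near 3 SD of response in nonfluorescent compounds, cut at about 42% in these data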;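 also: stock transfer was 100 nL into about 11 µL; a reference agonist was the positive control; negative values mostly stem from fluorescent compounds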
# Target sequence (P07550 whole entry, looked up): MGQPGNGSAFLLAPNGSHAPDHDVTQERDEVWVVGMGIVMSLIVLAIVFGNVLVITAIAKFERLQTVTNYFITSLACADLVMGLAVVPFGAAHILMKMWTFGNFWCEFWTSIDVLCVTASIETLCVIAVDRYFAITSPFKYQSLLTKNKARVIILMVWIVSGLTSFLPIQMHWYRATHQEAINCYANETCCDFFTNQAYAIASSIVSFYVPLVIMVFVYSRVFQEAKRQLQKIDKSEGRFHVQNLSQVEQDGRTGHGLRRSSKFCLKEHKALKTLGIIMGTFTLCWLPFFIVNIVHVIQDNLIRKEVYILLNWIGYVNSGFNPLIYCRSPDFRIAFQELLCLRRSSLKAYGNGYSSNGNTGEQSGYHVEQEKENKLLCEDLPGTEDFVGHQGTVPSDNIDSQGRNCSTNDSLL
# LANA-H2A inh: blocks KSHV LANA binding to histone H2A/H2B. Q9QR71. cell-free LANA-H2A/H2B peptide, fluorescence polarization. inhibition, % (concentration not given with the values). 0.6% of 320,000 active. AID 2629; in the data active = inhibition mostly above about 10%, no sharp cut-off; inactive = mostly below about 6.7%;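 also: stock transfer was 7.5 nL into about 10 µL; 0% = median of vehicle wells and 100% = median of positive control wells; one replicate is shown; the record names a cut of 25% in any replicate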
# Numbers without * were called inactive; i = inactive; ? = inconclusive; / = not tested or not shown; & = joins results of further samples.
SMILES,Vif A3G,LANA-H2A inh,B2AR ag,Calb FLC,RanGTP-Impb inh,HNF4A DNA FP,ALR H2O2 inh
O=C1CCN(CCc2ccccc2)CCN1[C@H](CSc1ccc(Br)cc1)Cc1ccccc1,/,-1.3,-2,1,-1.1,-0.2,/
O=C1CC(N(Cc2cccs2)C(=O)Nc2ccccc2)C(=O)N1c1ccc(Cl)cc1 (configuration not stated),/,-4.1,3,9,5.3,-1.0,-14
C/C(=N\NC(=O)CSCc1ccc([N+](=O)[O-])cc1)c1ccccc1O,?,-2.3,-12,-12,2.4,-0.3,-1
COc1ccccc1NC(=O)CSC1=NC(=O)C(NC(C)=O)C(=O)N1 (configuration not stated),8%,-4.5,-3,17,2.2,3.9,/
CCCCOC(=O)Nc1ccccc1C(=O)OC,-3%,-6.3,12,4,1.5,-1.0,1
Cc1ccc(Cl)cc1NC(=O)COC(=O)CC1CC2CCC1C2 (configuration not stated),-6%,1.9,0,-36,4.7,1.4,-7
CCOc1cc(/C=N/O)cc(Cl)c1OC,7%,/,4,6,1.7,2.3,/
Cc1ccc(C(=O)NC(NC(=O)c2ccc(C)cc2)c2cccc([N+](=O)[O-])c2)cc1,4%,-2.9,-1,-3,2.4,1.6,/
COc1ccc(C(=O)OCC(=O)N(C)C2CCS(=O)(=O)C2)cc1Br (configuration not stated),-16%,1.1,0,/,/,1.8,0
O=S(=O)(Nc1cccc(-c2nc3cccnc3s2)c1)c1cccs1,6%,-0.3,3,19,-5.0,-0.4,-3
COC(F)(C(=O)Nc1ccc2c(c1)C(=O)NC2=O)C(F)(F)F (configuration not stated),-3%,4.3,9,6,-2.8,4.6,-15
CC(C)(C)OC(=O)N1CCC[C@H]1c1nnc(SCc2ccccc2)o1,-2%,-2.4,-6,0,12,3.1,-4
CC(CCC(=O)O)C1CC[C@@]2(C)C3C(=O)CC4C(C)(C)C(O)CC[C@]4(C)C3C(=O)C[C@]12C (some centres not stated),7%,6.2,0,-4,4.8,-0.2,-2
O=C1CN(C(=O)COc2cccc(F)c2)c2ccccc2N1,10%,3.0,/,5,-2.0,/,-4
CCCc1cc2c(=O)n(NC(=O)c3nn(C)cc3[N+](=O)[O-])c(C)nc2s1,32%,0.5,1,-5,-2.4,1.2,-19
CC(C)c1ccc(CNn2cnnc2)cc1,29%,2.2,3,2,0.4,0.0,-1

# Three entries out of the list above, sorted by their value in B2AR ag, high to low.
SMILES | Vif A3G | LANA-H2A inh | B2AR ag | RanGTP-Impb inh | HNF4A DNA FP | ALR H2O2 inh
COC(F)(C(=O)Nc1ccc2c(c1)C(=O)NC2=O)C(F)(F)F (configuration not stated) | -3% | 4.3 | 9 | -2.8 | 4.6 | -15
CC(C)c1ccc(CNn2cnnc2)cc1 | 29% | 2.2 | 3 | 0.4 | 0.0 | -1
COc1ccc(C(=O)OCC(=O)N(C)C2CCS(=O)(=O)C2)cc1Br (configuration not stated) | -16% | 1.1 | 0 | / | 1.8 | 0

# (list continues)
SMILES,Vif A3G,LANA-H2A inh,B2AR ag,Calb FLC,RanGTP-Impb inh,HNF4A DNA FP,ALR H2O2 inh
O=C(CN1C(=O)NC2(CCCC2)C1=O)OCCOc1ccc(Br)cc1,-2%,-3.9,-1,0,-3.9,2.0,-1
O=S(=O)(NCCc1ccc(F)cc1)c1cccc2cccnc12,-5%,0.5,-3,-1,3.6,-2.5,-5
C=CCn1c(SCC(=O)N2CCN(c3ccc(F)cc3)CC2)nnc1-c1cccs1,-6%&-11%,2.1,-15,-6,2.4,2.7,70
Cc1ccc(NC(=O)CSc2nn(-c3ccccc3)c(=S)s2)cc1S(=O)(=O)N(C)C,-1%,0.3,-3,4,-0.5,-2.6,-2
COc1ccc(-c2nc(NC(=O)C3=NN(c4cccc(C)c4)C(=O)CC3)sc2C)cc1,4%,2.1,0,-19,-1.1,4.1,-2
CCC(NC(=O)/C(=C\c1ccc2c(c1)OCO2)NC(C)=O)C(=O)O (configuration not stated),/,11,-3,5,3.7,1.5,-6
COc1ccc(C(=O)CC(=O)Nc2ccc([N+](=O)[O-])cc2)cc1,/,-2.3,-2,2,2.3,-0.3,3
O=C1CC(N2CCN(c3ncccn3)CC2)C(=O)N1CCc1ccccc1 (configuration not stated),1%,-7.4,10,-2,?,0.8,0
CCOC(=O)c1c[nH]c2c([N+](=O)[O-])cc(OC)cc2c1=O,-1%,/,2,/,/,3.7,/
O=C(c1cc(=O)c2ccccc2o1)N(Cc1ccccc1)C1CCS(=O)(=O)C1 (configuration not stated),-1%,/,-9,3,-0.6,-1.6,4
O=C(NCc1ccc(F)cc1)c1cnccn1,0%,-11,11,9,4.6,-3.8,6
CN(C)CC#CCC(O)(c1ccccc1)C1CCCCC1 (configuration not stated),/,-1.1,-1,9,0.1,0.8,-5
CCC(=O)NCCc1nc2ccccc2n1CC(=O)c1ccccc1,-5%,1.2,-9,0,-2.2,2.7,-7
O=S(=O)(/N=C(/NC(=S)Nc1ccccc1)c1ccccc1)c1ccc(Cl)cc1,/,2.7,-6,1,-3.4,2.2,-4
CCOc1ncccc1C(=O)OCC(=O)Nc1cccc(C(C)=O)c1,0%,-1.2,5,-22,1.2,0.6,-6
CC1Cc2ccccc2N1C(=O)COC(=O)Cn1nnc(-c2ccccc2)n1 (configuration not stated),-1%,-2.1,4,0,-2.7,-1.1,-10
Cn1c(=O)c(Nc2ccc(O)cc2)c2c3c(cccc31)C(=O)c1ccccc1-2,?,4.9,10,5,i,-131,69
CC(C)(C)C(=O)N1CCC[C@H]1C(O)(c1ccccc1)c1ccccc1,0%,1.3,-5,3,0.9,0.3,1
CC(=O)c1c(C)[nH]c(C(=O)NNC(=O)COc2ccc(Cl)cc2C)c1C,7%,2.0,0,15,-0.6,2.8,2
COc1ccc2c(c1OC)C(=O)OC2CC(=O)c1ccc(O)cc1 (configuration not stated),17%,6.5,-1,3,1.1,1.4,22
O=C(CCCc1cccs1)NCCc1c[nH]c2ccccc12,-8%,-1.5,2,0,11,4.9,-1
N#CC(C#N)=Cc1cnc(N2CCN(c3ccccc3)CC2)s1,-11%,2.3,1,-9,6.4,0.9,-2
CC(C)(C)c1cc(/C=N/NC(=O)Cc2nc3ccccc3[nH]2)cc(C(C)(C)C)c1O,?,-2.5,15,0,39*,-0.4,-14
O=C(c1ccc(Cn2c(=O)[nH]c3ccsc3c2=O)cc1)N1CCN(c2ccccc2)CC1,3%,-3.2,10,-2,-2.7,2.3,3
COc1ccc(-n2c(/C=C(\C)O)nc(=O)c3c(C)cc(C)nc32)cc1,8%,-1.7,7,9,?,3.1,-7
Cc1ccccc1NC(=O)c1cc(C(=O)c2cc(Cl)ccc2O)cn(-c2ccccc2C)c1=O,-9%,5.0,20,20,0.7,7.1,-36
COc1cccc(C(=O)NNC(=O)C(=O)Nc2cccc3ccccc23)c1,/,1.0,-6,3,1.4,4.2,/
O=C(CSc1nc2ccccc2c(=O)n1-c1ccccc1)N/N=C/C=C/c1ccccc1[N+](=O)[O-],16%,-2.1,0,47,1.8,3.0,-2
CCOC(=O)c1ccc(NC(=O)Cn2c(=O)oc3ccccc32)cc1,/,-2.8,-8,2,0.0,1.2,5
O=C(c1ccccc1)c1ccc(OCCn2cnc3ccccc3c2=O)cc1,19%,-0.7,-21,1,-0.9,1.4,-5
CCOC(=O)N1CCN(c2cc(=O)n(-c3ccc(Br)cc3)c(=O)[nH]2)CC1,2%,-3.8,-2,-2,2.4,1.5,15
CCCn1nnc2sc3c(c2c1=O)CCC(C)C3 (configuration not stated),21%,1.5,-5,3,9.5,-2.2,3
Cc1ccccc1C(=O)Oc1cc(N)n(S(C)(=O)=O)n1,-8%,6.9,2,-7,-2.3,2.0,7
Cc1ccc([N+](=O)[O-])cc1N=Nc1c(C)[nH]n(C(N)=S)c1=O,-1%,5.7,3,-17,1.5,3.4,98*
COc1ccc(CCNC(=S)NC(=O)c2cccc(Cl)c2)cc1OC,/,4.0,2,-7,2.1,2.5,-11
COc1ccc(CN2CCC(C(=O)Nc3ccc(Oc4cccnc4)cc3)CC2)cc1,/,-2.1,-11,1,-1.5,2.5,-1
Cc1ccc(Nc2cc(C)nc(N3CCOCC3)n2)cc1,-1%,-0.6,11,8,1.2,0.3,10
O=C(O)C1CN(C(=O)c2cccc(Br)c2)C1,2%,-2.6,-2,-2,-1.3,1.4,-14
O=C(Nc1cc(Cl)cc(Cl)c1)N1CCCC1,23%,1.6,-5,14,-1.9,1.0,/
CC(=O)Nc1ccc(C(=O)OCC(=O)N2CCC(Cc3ccccc3)CC2)cc1,0%,-3.1,3,/,/,-0.7,1
Clc1ccc(/C(Cc2nc3ccccc3[nH]2)=N\Nc2ccccc2)cc1,72%,-9.5,23,-45,-6.1,1.9,-7
Cc1nnsc1C(=O)NC1CCCCC1,2%,-12,-4,-5,-3.2,-0.8,-4
CCOC(=O)[C@H]1[C@H]2COc3ccc(OC)cc3[C@@H]2N2C(=O)CN(Cc3ccc(F)cc3)C(=O)[C@@]12C,/,5.6,-2,/,/,6.2,-3
CC(=O)NC(CC(=O)N(Cc1ccccc1)c1ccc(C)cc1)c1ccccc1 (configuration not stated),/,-5.2,4,19,2.0,-1.0,-2
Cc1ccc(C)c2nc(SCC(=O)N3CCCc4ccccc43)c(C#N)cc12,1%,-0.1,4,-10,?,2.1,-14
CN(C)C(=O)c1ccc(NC(=O)c2ccccc2-c2ccccc2)cc1,/,3.6,5,9,?,2.1,-1
CC(=O)Nc1ccc(Nc2nc(C)c([N+](=O)[O-])c(Nc3ccc(NC(C)=O)cc3)n2)cc1,13%,-0.1,23,23,0.6,2.5,-5
Cc1cc(C2N=C(N)Nc3nc4ccccc4n32)c(C)n1-c1ccccc1Cl (configuration not stated),1%,2.3,1,38,1.2,7.4,-1
O=C(CSc1ncnc2c1nnn2Cc1ccccc1)NC1CCCC1,9%,-1.6,2,0,-2.0,-3.0,15
COc1cc(/C=N\NC(=O)Cn2nnc3ccccc32)cc(OC)c1OC,0%,1.2,-13,-11,4.9,2.7,-4
Cc1nc2ccc(Cl)cc2c(-c2ccccc2)c1CC(=O)O,/,6.4,7,-5,0.0,-1.0,1
Cc1ccnc(SCC(=O)N2CCN(C(c3ccccc3)c3ccccc3)CC2)n1,-1%,0.9,3,-4,1.4,3.5,-7
COc1cc(COC(=O)c2cnc(C)cn2)c(OC)cc1Br,/,0.4,11,-2,?,2.0,-2
CC(C)OCCCNC(=O)c1ccc2c(c1)ncn2C1CCCC1,-4%,2.7,7,1,-4.1,-2.6,2
COc1cc([N+](=O)[O-])ccc1NC(=O)COC(=O)CCOc1ccc(C)cc1,14%,4.3,10,/,/,1.2,25
O=c1cnnc(SCc2ccc([N+](=O)[O-])cc2)[nH]1,8%,3.4,8,/,/,-3.2,100*

# (list continues)
SMILES,Vif A3G,LANA-H2A inh,B2AR ag,Calb FLC,RanGTP-Impb inh,HNF4A DNA FP,ALR H2O2 inh
O=C(/C=C/c1ccc([N+](=O)[O-])cc1)N1CCN(S(=O)(=O)c2ccccc2)CC1,/,4.0,5,/,/,2.9,/
Cc1c(C(=O)NNC(=O)c2ccccc2O)oc2ccc(Br)cc12,4%,3.7,1,/,6.4,9.1,4
COc1ccc(C2Nc3ccccc3C(=O)N2c2ccc(F)cc2)cc1CSc1ccccn1 (configuration not stated),/,3.0,-15,-8,-1.1,0.6,-4
CCOc1cccc(C2C(C(=O)c3ccc(C)o3)=C(O)C(=O)N2CCCn2ccnc2)c1 (configuration not stated),-13%,-1.1,-3,-2,2.3,1.1,-1
Cc1cc(NC(=O)CCNS(=O)(=O)c2ccc3[nH]c(=O)oc3c2)ccc1Br,1%,6.8,5,-3,-1.3,-1.6,-2
